HSV replic up = HSV replication enhancement. HSV replication augmentation in cells, fold increase. maximum fold increase. 0.005% of 220,000 active. AID 1956;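 active means peak rise of 1.5-fold or more in the series; tested in PC3 cells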;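 further: first round at 10 µM; read as green reporter fluorescence; hits show the peak of a series up to 25 µM; 1 = signal of infected wells without compound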
RGS16-Gao = modulates binding between human RGS16 and Galphao; bead-based flow cytometry RGS16-Galphao binding, fluorescence; actives lie on both sides; binding response (% of control), % at 10 µM; 0.38% of 220,000 active;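 active means below 25% or above 175%, edge rows of some plates excepted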;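 further: Galphao activated by GDP with aluminum fluoride before binding; 100% = wells without compound and 0% = beads without RGS; some results beyond the cut were filed as inactive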
GALR2 agonist = GALR2 (human) receptor agonism | activation, %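 (tested at 5 µM)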 | 0.48% of 140,000 active | O43603 | GALR2-expressing cells, agonist activation read-out;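 active means above mean plus 3 SD of all compounds, about 5% in these data, not always enough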;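 further: 0% = vehicle buffer wells and 100% = reference agonist at full effect; tested in CHO reporter cells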
Target sequence (O43603 whole entry, looked up): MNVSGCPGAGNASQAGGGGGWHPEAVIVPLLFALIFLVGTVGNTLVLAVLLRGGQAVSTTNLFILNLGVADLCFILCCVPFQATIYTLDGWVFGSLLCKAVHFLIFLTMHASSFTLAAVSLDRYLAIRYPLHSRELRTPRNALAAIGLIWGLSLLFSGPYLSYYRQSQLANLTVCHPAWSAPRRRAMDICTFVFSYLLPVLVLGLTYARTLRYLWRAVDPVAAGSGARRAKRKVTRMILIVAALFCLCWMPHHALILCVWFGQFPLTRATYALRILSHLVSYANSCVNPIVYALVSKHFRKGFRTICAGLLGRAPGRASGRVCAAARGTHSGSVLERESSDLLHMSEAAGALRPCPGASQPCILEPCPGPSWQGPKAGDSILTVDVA
PKD1 kinase inh = PKD1 (human) kinase inhibition; Q15139; PKD1 kinase fluorescence polarization assay; inhibition, %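 (about 10 µM by stock and volumes)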; 0.056% of 200,000 active; AID 797;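 active means inhibition of 50% or more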;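 further: controls were vehicle for no effect and a reference inhibitor for full effect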
Insulin prom inh = TRM-6 insulin promoter activity inhibition; TRM-6 cells (human fetal islet line), insulin promoter-eGFP reporter, imaging; reporter expression induced with tamoxifen; inhibition, % at 2 µM; 0.9% of 130,000 active; AID 1273;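 active means inhibition above the mean plus 3 SD, with well images judged a real hit on visual review, cut at about 60% in these data, passing the limit was not always enough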
Insulin prom inh cell count = further read-out of Insulin prom inh, marked with its call; normalized cell count, %; measured here: cell count, toxicity; reference of the scale not given here;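 cells exposed to compound for 48 h; stained nuclei by imaging scaled within each plate; lower means fewer cells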
HSV replic up primary fold = recorded beside HSV replic up, whose call it bears; fold increase; compound at 10 µM; measured here: primary screen fold increase 10 uM; tested in PC3 cells;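 GFP signal in the first replicate; 1 = infected wells without compound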
* = called active by the depositor; i = inactive; . = no result given.

Start of the listing, in advance:
| item | SMILES | HSV replic up | HSV replic up primary fold | RGS16-Gao | GALR2 agonist |
| --- | --- | --- | --- | --- | --- |
| 1 | CCCSc1nc(C)c(C(C)=O)cc1C#N | i | 0.85 | 100 | 0.8 |
| 2 | CC(/C=N/NC(=O)c1ccccn1)=C\c1ccco1 | i | 1.1 | 96 | . |
| 3 | CCCOc1ccc(C(O)(CCC)CCN2CCCCC2)cc1 (stereo not drawn) | i | 0.99 | 108 | -6.0 |
| 4 | CCOC(=O)c1c(-c2ccco2)csc1N | i | 1.1 | 101 | -2.0 |
| 5 | CCOC(=O)CS(=O)(=O)c1ccc(O)cc1 | i | 1 | 98 | . |
| 6 | CCOc1ccc2nc(N3CCC(C(=O)N4CCN(c5ccccn5)CC4)CC3)sc2c1 | i | 1.1 | 106 | 0.1 |
| 7 | Cc1ccc(-c2ccc(/C=N/O)o2)cc1[N+](=O)[O-] | i | 0.93 | 87 | . |
| 8 | Cc1csc(NC(=O)CSc2nnc(-c3ccc(Cl)cc3)n2N)n1 | i | 0.95 | 94 | -1.9 |
| 9 | COc1cc(CN2CCN(c3ccccc3F)CC2)c([N+](=O)[O-])cc1OC | i | 0.95 | 99 | -0.6 |
| 10 | CNc1nnc(-c2cc3cc(Cl)ccc3oc2=O)s1 | i | 1.1 | 103 | 0.2 |
| 11 | Cc1ccc(OCCn2c(NC(=O)c3ccco3)nc3ccccc32)cc1 | i | 0.9 | 63 | -0.1 |
| 12 | COC(=O)c1ccc(C(C(=O)NC2CCCCC2)N(C(=O)Cc2cccs2)C2CC2)cc1 (stereo not drawn) | i | 0.97 | 115 | -1.4 |

| item | PKD1 kinase inh | Insulin prom inh | Insulin prom inh cell count |
| --- | --- | --- | --- |
| 1 | -4 | . | . |
| 2 | . | . | . |
| 3 | -1 | -8 | 62 |
| 4 | -2 | . | . |
| 5 | -5 | . | . |
| 6 | -8 | -10 | 123 |
| 7 | -4 | 29 | 106 |
| 8 | 0 | 7 | 94 |
| 9 | -1 | 53 | 104 |
| 10 | -1 | 34 | 84 |
| 11 | 1 | . | . |
| 12 | -6 | -3 | 109 |

| item | SMILES | HSV replic up | HSV replic up primary fold | RGS16-Gao | GALR2 agonist |
| --- | --- | --- | --- | --- | --- |
| 13 | Cc1ccc2nc(C(=O)O)c(C(=O)O)nc2c1 | i | 0.71 | 30 | -1.2 |

| item | PKD1 kinase inh | Insulin prom inh | Insulin prom inh cell count |
| --- | --- | --- | --- |
| 13 | -3 | 25 | 114 |

The listing, from the first entry:
| item | SMILES | HSV replic up | HSV replic up primary fold | RGS16-Gao | GALR2 agonist |
| --- | --- | --- | --- | --- | --- |
| 1 | CCCSc1nc(C)c(C(C)=O)cc1C#N | i | 0.85 | 100 | 0.8 |
| 2 | CC(/C=N/NC(=O)c1ccccn1)=C\c1ccco1 | i | 1.1 | 96 | . |
| 3 | CCCOc1ccc(C(O)(CCC)CCN2CCCCC2)cc1 (stereo not drawn) | i | 0.99 | 108 | -6.0 |
| 4 | CCOC(=O)c1c(-c2ccco2)csc1N | i | 1.1 | 101 | -2.0 |
| 5 | CCOC(=O)CS(=O)(=O)c1ccc(O)cc1 | i | 1 | 98 | . |
| 6 | CCOc1ccc2nc(N3CCC(C(=O)N4CCN(c5ccccn5)CC4)CC3)sc2c1 | i | 1.1 | 106 | 0.1 |
| 7 | Cc1ccc(-c2ccc(/C=N/O)o2)cc1[N+](=O)[O-] | i | 0.93 | 87 | . |
| 8 | Cc1csc(NC(=O)CSc2nnc(-c3ccc(Cl)cc3)n2N)n1 | i | 0.95 | 94 | -1.9 |
| 9 | COc1cc(CN2CCN(c3ccccc3F)CC2)c([N+](=O)[O-])cc1OC | i | 0.95 | 99 | -0.6 |
| 10 | CNc1nnc(-c2cc3cc(Cl)ccc3oc2=O)s1 | i | 1.1 | 103 | 0.2 |

| item | PKD1 kinase inh | Insulin prom inh | Insulin prom inh cell count |
| --- | --- | --- | --- |
| 1 | -4 | . | . |
| 2 | . | . | . |
| 3 | -1 | -8 | 62 |
| 4 | -2 | . | . |
| 5 | -5 | . | . |
| 6 | -8 | -10 | 123 |
| 7 | -4 | 29 | 106 |
| 8 | 0 | 7 | 94 |
| 9 | -1 | 53 | 104 |
| 10 | -1 | 34 | 84 |

The results go on.
| item | SMILES | HSV replic up | HSV replic up primary fold | RGS16-Gao | GALR2 agonist |
| --- | --- | --- | --- | --- | --- |
| 11 | Cc1ccc(OCCn2c(NC(=O)c3ccco3)nc3ccccc32)cc1 | i | 0.9 | 63 | -0.1 |
| 12 | COC(=O)c1ccc(C(C(=O)NC2CCCCC2)N(C(=O)Cc2cccs2)C2CC2)cc1 (stereo not drawn) | i | 0.97 | 115 | -1.4 |
| 13 | Cc1ccc2nc(C(=O)O)c(C(=O)O)nc2c1 | i | 0.71 | 30 | -1.2 |
| 14 | COc1cc2nc(-c3ccccc3)nc(N3CCCC3)c2cc1OC | i | 0.81 | 125 | -1.3 |
| 15 | Cc1cccc(C(=O)NNC(=O)C(=O)NC(C)(C)C)c1 | i | 0.91 | 98 | -2.0 |
| 16 | O=C(Nc1ccc(Cl)c(Cl)c1)Nc1cc(C(=O)NC2CC2)ccc1Cl | i | 0.72 | 97 | -0.4 |
| 17 | O=C(O)c1c2c(nc3ccc(F)cc13)CCC2 | i | 1.1 | 29 | -3.0 |
| 18 | CCCCCOc1ccc(C2NC(=O)NC2=O)cc1 (stereo not drawn) | i | 0.89 | 104 | 0.5 |
| 19 | CC(C(=O)Nc1cccc([N+](=O)[O-])c1)n1nnc2ccccc21 (stereo not drawn) | i | 0.97 | 95 | 4.6 |
| 20 | COCCn1c(SCC(=O)N2CCN(c3ccccc3)CC2)nc2c(c1=O)SC(C)C2 (stereo not drawn) | i | 1.1 | 96 | . |

| item | PKD1 kinase inh | Insulin prom inh | Insulin prom inh cell count |
| --- | --- | --- | --- |
| 11 | 1 | . | . |
| 12 | -6 | -3 | 109 |
| 13 | -3 | 25 | 114 |
| 14 | -10 | 43 | 108 |
| 15 | -8 | -16 | 84 |
| 16 | 0 | -93 | 93 |
| 17 | -1 | 62 | 90 |
| 18 | 18 | . | . |
| 19 | 9 | -87 | 83 |
| 20 | . | . | . |

In another format: results already given.
no. | structure | HSV replic up | HSV replic up primary fold | RGS16-Gao | GALR2 agonist | PKD1 kinase inh | Insulin prom inh | Insulin prom inh cell count
12 | COC(=O)c1ccc(C(C(=O)NC2CCCCC2)N(C(=O)Cc2cccs2)C2CC2)cc1 (stereo not drawn) | i | 0.97 | 115 | -1.4 | -6 | -3 | 109
13 | Cc1ccc2nc(C(=O)O)c(C(=O)O)nc2c1 | i | 0.71 | 30 | -1.2 | -3 | 25 | 114

(next part)
| item | SMILES | HSV replic up | HSV replic up primary fold | RGS16-Gao | GALR2 agonist |
| --- | --- | --- | --- | --- | --- |
| 21 | CCCn1c(O)c2ccc(C(=O)N=NC(=O)c3cccnc3)cc2c1O | i | 1 | 103 | -2.5 |
| 22 | CC(C)(C)c1cccc(OCCCSc2ncccn2)c1 | i | 1.1 | 103 | -2.7 |
| 23 | NS(=O)(=O)c1ccc(NC(CNS(=O)(=O)c2ccccc2)c2ccccc2)cc1 (stereo not drawn) | i | 0.98 | 99 | . |
| 24 | COc1ccc(/C=C/C(=O)c2oc3ccc(F)cc3c2C)cc1 | i | 0.96 | 106 | -0.3 |
| 25 | O=C(CCCOc1ccc(Cl)cc1Cl)NNC(=O)C1CCC1 | i | 1 | 102 | . |
| 26 | Cc1ccc(S(=O)(=O)NC(C(=O)Oc2cc3oc(=O)cc(C)c3cc2Cl)C(C)C)cc1 (stereo not drawn) | i | 0.93 | 103 | 0.3 |
| 27 | O=C(NCc1cccs1)c1nc2c(nnn2Cc2ccccc2Cl)c(=O)[nH]1 | i | 0.79 | 80 | -0.4 |
| 28 | Cc1cc(N2CCN(C(=O)c3ccco3)CC2)n2nc(C)c(-c3ccccc3)c2n1 | i | 0.95 | 24 | -2.0 |
| 29 | CN(Cc1ccccc1)S(=O)(=O)c1ccc(NS(=O)(=O)Cc2ccccc2)cc1 | i | 0.93 | 104 | -0.7 |
| 30 | C=CCOc1ccc(C2C(C(=O)c3ccco3)=C(O)C(=O)N2Cc2cccnc2)cc1 (stereo not drawn) | i | 0.96 | 105 | -3.5 |

| item | PKD1 kinase inh | Insulin prom inh | Insulin prom inh cell count |
| --- | --- | --- | --- |
| 21 | -4 | 8 | 107 |
| 22 | 4 | -51 | 68 |
| 23 | -2 | -107 | 57 |
| 24 | 5 | -6 | 100 |
| 25 | 3 | . | . |
| 26 | -6 | 25 | 81 |
| 27 | 0 | -7 | 118 |
| 28 | -6 | -13 | 91 |
| 29 | -3 | -39 | 32 |
| 30 | 8 | -142 | 68 |

(continued)
| item | SMILES | HSV replic up | HSV replic up primary fold | RGS16-Gao | GALR2 agonist |
| --- | --- | --- | --- | --- | --- |
| 31 | CN(CCO)C1=NS(=O)(=O)c2cc([N+](=O)[O-])ccc21 | i | 0.97 | 103 | . |
| 32 | CC(C)(C)C1(c2ccccc2)NC(=O)N(CC(=O)N2CCOCC2)C1=O (stereo not drawn) | i | 0.74 | 95 | -1.5 |
| 33 | Cn1c(CCCOc2ccc(Cl)cc2Cl)nnc1SCC(=O)Nc1ccc(F)c(Cl)c1 | i | 0.88 | 99 | -1.7 |
| 34 | Cc1ccccc1Cn1c(=N)n(CC(O)c2ccco2)c2ccccc21 (stereo not drawn) | i | 1.1 | 107 | -1.5 |
| 35 | C#CCN(N(C)c1ncc(C(F)(F)F)cc1Cl)S(=O)(=O)c1ccc2ccccc2c1 | i | 0.84 | 97 | -0.1 |
| 36 | COCCNS(=O)(=O)c1ccccc1 | i | 1 | 102 | -1.2 |

| item | PKD1 kinase inh | Insulin prom inh | Insulin prom inh cell count |
| --- | --- | --- | --- |
| 31 | -3 | -8 | 95 |
| 32 | 11 | 50 | 135 |
| 33 | -2 | 17 | 110 |
| 34 | 4 | . | . |
| 35 | -6 | 25 | 71 |
| 36 | -6 | -34 | 91 |
